PABP polyA inh: blocks human PABP binding to poly(A) RNA; 290,000 tested, 1% active; fluorescence polarization; inhibition, % at 35 µM;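 active = 50% or more with normal probe brightness, or confirmed in later tests; inconclusive = above 50% with abnormal brightness, or retests that disagree; inactive = below 50% or failed in later tests; about a fifth of its hits are not listed in these tables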;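 also: calls also rest on retests at 20 µM and on dose response follow-up; controls were probe without protein and protein plus probe with vehicle; some compounds called inactive have numbers as strong as hits; many hits fall short of the cut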
Env fusion inh: HIV envelope-mediated fusion inhibition | HeLa-JRFL Env/CEM21 cell fusion, luciferase | inhibition, % at 12.3 µM | 360,000 tested, 1.1% active | AID 651610;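 active = mean replicate inhibition score of at least 50 and every replicate individually at or above 50; inconclusive = only one of the two criteria met; inactive = mean below 50 and not all replicates reaching 50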;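 also: 0% = plate neutral controls and 100% = maraviroc near 300 nM; one replicate is shown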
UUG fidelity: alters start codon recognition fidelity in yeast. S. cerevisiae UUG-firefly luciferase reporter, luminescence/redox ratio. activity score, % at 18.7 µM. 350,000 tested, 0.13% active;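 active = replicate mean at a twofold rise or more, about +100% in these data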;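 also: firefly luciferase made from a UUG start codon reports start codon fidelity; reporter light over untreated wells divided by growth signal over untreated wells; some hits fall short of that in this replicate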
MT1-MMP act inh: MT1-MMP (human) activation inhibition; P50281; HT1080 RFP-PRO-GFP cells, GFP/RFP ratio fluorescence, overnight; percent of plate control window, DMSO zero; GFP/RFP ratio change, % at 20 µM; 360,000 tested, 0.061% active;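 active = GFP/RFP ratio change of at least 30% with cell ATP level not reduced by more than half and red fluorescence within 50% of control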; also: strong numbers were not always called active
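Assay system: HT1080 RFP-PRO-GFP cells | Dosing: 20 µM single dose, 1% DMSO | Incubation: Cells overnight before dosing, compound overnight, 37 °C, 5% CO2 | Evaluation: GFP/RFP fluorescence ratio | Control set: DMSO-only wells and HT1080 RFP-L50D-GFP cell wells as references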
eIF4H inh: inhibitors of RNA binding by human eIF4H. AID 2012. 290,000 tested, 0.94% active. Q15056. inhibition, % at 35 µM. eIF4H fluorescence polarization binding assay;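 active = 50% or more with normal probe brightness, or confirmed in later tests; inconclusive = above 50% with abnormal brightness, or retests that disagree; inactive = below 50% or failed in later tests; about a fifth of its hits are not listed in these tables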;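 also: calls also rest on retests at 20 µM and on dose response follow-up; 0% = protein and probe with vehicle and 100% = probe without protein; strong numbers were not always called active; many hits fall short of the cut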
CSC inhib: cancer stem cell inhibition; cancer stem cell-like cells viability, luminescence; inhibition, % at 7.5 µM; 300,000 tested, 1.1% active;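 active = mean at 75% or more and at least half the replicates too; inconclusive = mean and replicates disagree; tested in HMLE shEcad cells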;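 also: 0% = median of negative and 100% = median of positive control wells; the first replicate is given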
Rce1 inh: inhibitors of yeast Ras-converting enzyme; Q03530; yeast membranes, quenched prenylated peptide cleavage fluorescence; calls only; 290,000 tested, 0.27% active; AID 2563;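 active = fall in fluorescence gain of 50% or more versus controls, with final raw signal at or below 3038400; inconclusive = same 50% fall but final raw signal above 3038400; inactive = fall in fluorescence gain under 50%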;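 also: plate controls were neutral control wells for no effect and wells lacking membranes for full effect; tested at 10 µM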
Target sequence (Q03530 whole entry, looked up): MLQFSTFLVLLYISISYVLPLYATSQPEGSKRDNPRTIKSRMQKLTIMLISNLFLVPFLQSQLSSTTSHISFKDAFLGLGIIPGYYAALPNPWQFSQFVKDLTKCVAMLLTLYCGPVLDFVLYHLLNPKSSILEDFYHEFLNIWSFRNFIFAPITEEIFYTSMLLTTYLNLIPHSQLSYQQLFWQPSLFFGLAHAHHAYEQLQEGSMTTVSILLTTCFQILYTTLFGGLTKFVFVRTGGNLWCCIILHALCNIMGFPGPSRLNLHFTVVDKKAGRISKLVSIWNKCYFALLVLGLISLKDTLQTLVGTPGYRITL
MT1-MMP act inh RFP: further read-out of MT1-MMP act inh, marked with its call; RFP signal change, %; measured here: RFP expression control read;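 0 = vehicle wells; hits needed this value within 50% of zero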
* = called active by the depositor; i = inactive; ? = inconclusive; . = no result given. This is a random part of the collection; overall some 2.9% were active at least once.

Below each SMILES: MT1-MMP act inh RFP | Env fusion inh | eIF4H inh | PABP polyA inh | UUG fidelity | Rce1 inh | CSC inhib | MT1-MMP act inh
(1) CC(/C=N/NC(=O)CSc1n[nH]c(=O)[nH]c1=O)=C\c1ccccc1
→ -2.2 | 6.2 | -15.4 | 0.8 | . | i | -2.4 | -0.2
(2) CS(=O)(=O)N(CC(=O)N1CCCCCC1)c1ccc(Br)cc1
→ 2.1 | -29.2 | -21.5 | -0.2 | -8.1 | i | -20.9 | 3.6
(3) Cc1ccc(CNC(=O)c2ccc3c(=O)[nH]c4c(C(=O)NCC5CCCO5)sc(=S)n4c3c2)cc1 (stereo not given)
→ 2.8 | 0.4 | 1.1 | 0.7 | -6.5 | i | 2.4 | 6.6
(4) Cc1cc(C(F)(F)F)nc(-n2cc(-c3ccccc3)nn2)n1
→ 0.5 | -2.0 | 2.7 | 6.2 | -11.4 | i | 1.7 | 2.0
(5) O=C(Cc1ccccc1)NN1C(=O)C2C3C=CC([C@@H]2C1=O)C31CC1 (stereo not given in full)
→ 3.5 | 12.2 | -4.9 | 4.4 | . | i | -13.6 | 4.2
(6) Cc1nn(C)c(C)c1CNC(=O)c1cnn2c1NC(c1ccccc1)CC2C(F)(F)F (stereo not given)
→ -2.9 | 2.6 | -6.4 | -9.7 | -2.4 | i | -1.1 | -0.6
(7) COc1cc(/C=C/C(=O)OCC(=O)NCc2cccs2)ccc1OCC#N
→ 1.8 | -5.9 | -11.5 | 4.7 | . | i | 1.0 | 3.8
(8) CCCCN(CCCC)C(=O)c1sc2nc(N3CCOCC3)c3c(c2c1N)CCCC3
→ -2.8 | 9.0 | -6.4 | 5.9 | -0.6 | i | 28.3 | -0.8
(9) CC1=NN(c2ccc(C(=O)O)cc2)C(=O)/C1=C\c1ccc(OC(=O)c2cccs2)cc1
→ 3.2 | 7.5 | 7.9 | 4.2 | . | i | -9.1 | 5.0
(10) CCOC(=O)N1CCN(C(=O)c2cnc(Nc3ccccc3OC)c3ccccc23)CC1
→ -0.9 | 2.0 | 2.2 | -1.3 | 3.2 | . | -5.5 | 0.1
(11) CCCN1CCN(CCCNC(=O)c2ccccc2NC(=O)C2=C(C)OCCS2)CC1
→ 1.1 | 0.4 | 17.1 | 12.3 | -9.8 | i | 4.9 | -0.2
(12) CCC(=Nc1ccccc1OC)C1=C(O)CC(c2ccccc2)CC1=O (stereo not given)
→ 4.3 | -9.8 | -4.6 | 6.1 | 4.0 | i | -7.4 | -0.4
(13) Cc1cc(NC(=O)CCC(=O)N(CC(=O)NCC2CCCO2)Cc2ccc(F)cc2)no1 (stereo not given)
→ -1.7 | ? | 1.8 | -0.1 | -18.8 | i | -6.4 | 0.1
(14) CNC(=O)CN(c1cc([N+](=O)[O-])ccc1OC)S(C)(=O)=O
→ -0.9 | -2.8 | 4.6 | 4.9 | . | i | 5.6 | 2.0
(15) C=CC1(C)CN(Cc2ccco2)S(=O)(=O)c2c(F)cccc2O1 (stereo not given)
→ 6.6 | 15.8 | . | . | -12.8 | . | . | -0.8
(16) COc1ccc(NC(=O)Nc2cccc3cccnc23)cc1
→ -1.2 | . | 1.6 | 2.0 | -11.6 | i | -3.1 | 4.4
(17) COc1ccc(-c2nc3c(-c4ccc(Cl)cc4)cnn3cc2C)cc1F
→ 1.8 | -44.7 | -8.9 | -11.5 | . | i | 3.9 | 8.0
(18) Cc1cc(Nc2c(C)n(C)n(-c3ccccc3)c2=O)c2ccccc2n1
→ 7.1 | 16.4 | -4.2 | -5.0 | . | i | -2.5 | 5.8
(19) CC(C)(C)NC(=O)C(c1ccncc1)N(Cc1cccs1)C(=O)Cn1nnc(-c2cccs2)n1 (stereo not given)
→ -12.5 | 14.4 | -4.9 | 11.6 | -20.9 | i | 5.4 | -25.8
(20) O=C(NNC(=S)Nc1ccccc1)C1CCCCC1
→ 2.6 | -10.0 | 5.9 | -3.6 | . | i | 1.3 | 3.0
(21) COc1ccc(OC)c(/C=C2\SC(N3CCCC(C)C3)=NC2=O)c1 (stereo not given)
→ -2.2 | ? | -6.5 | 2.8 | . | i | -4.8 | -5.2
(22) CCN(CC)CCCCCOc1ccccc1OC
→ 3.4 | . | -4.4 | -1.8 | -2.7 | i | -14.0 | -0.2
(23) COc1ccc(C2C=C(c3ccccc3)Nc3nnnn32)cc1 (stereo not given)
→ -7.2 | . | 0.5 | 9.4 | -21.1 | i | -16.4 | -22.8
(24) COc1ccc(NCCC#N)cc1
→ -1.8 | . | -6.7 | -3.4 | -4.3 | i | 4.4 | -3.3
(25) CCOc1ccc(S(=O)(=O)Nc2cccc(C(=O)NCCCN3CCOCC3)c2)cc1
→ 0.5 | . | . | . | -22.9 | . | -9.4 | 1.4
(26) CCCC(=O)OCC(=O)Nc1ccc([N+](=O)[O-])cc1C#N
→ -6.9 | 19.4 | -3.1 | -7.4 | . | i | -10.0 | -5.6
(27) CCN(C[C@H]1N[C@@](C)(C(=O)OC)[C@H]2C(=O)N(Cc3ccccc3)C(=O)[C@@H]12)S(=O)(=O)c1ccc(C(C)(C)C)cc1
→ -4.8 | 83.6* | . | . | 10.1 | . | . | -3.3
(28) Cc1cc(C)n(CNc2nc(C(F)(F)F)cs2)n1
→ -3.0 | . | -2.5 | -1.0 | -8.7 | i | -7.7 | -4.8
(29) C/C(=N\NC(=O)C1(C)CC1(Br)Br)c1ccc([N+](=O)[O-])cc1 (stereo not given)
→ -4.3 | 12.0 | 0.3 | 0.4 | 1.2 | i | -5.2 | 0.1
(30) COc1ccc(C(=O)C2CCCN(Cc3ccc(C#CCCO)cc3)C2)cc1F (stereo not given)
→ -3.6 | -17.4 | 11.1 | 9.9 | . | i | -0.6 | -1.6
(31) O=C(CSc1nccc(=O)[nH]1)Nc1ccc(F)c([N+](=O)[O-])c1
→ 0.0 | -33.4 | -11.7 | -3.0 | . | i | -10.2 | 1.1
(32) CC(N)=Nc1ccc([N+](=O)[O-])cc1
→ 1.2 | 9.3 | -1.0 | 1.0 | -9.0 | i | -10.8 | -2.7
(33) Cc1ccc(NC(=O)Cn2c(=O)n(CCC(=O)NC3CCN(Cc4ccccc4)CC3)c(=O)c3ccccc32)cc1
→ -1.0 | 8.0 | 0.1 | 39.0 | . | i | -2.3 | 2.2
(34) O=C(Cc1ccccc1)Nc1cccnc1
→ 3.0 | 7.7 | 11.9 | 2.9 | . | i | -6.9 | 3.5
(35) O=C(NC1CCN(S(=O)(=O)c2ccc(Cl)c(F)c2)CC1)c1cccnc1
→ -0.7 | 9.1 | -0.8 | 8.7 | -6.6 | i | . | -1.2
(36) COc1cc(/C=C/C(=O)Nc2cc(S(=O)(=O)N3CCOCC3)ccc2N2CCCC2)cc(OC)c1OC
→ 2.3 | -3.3 | -6.6 | -4.9 | -9.5 | i | -3.4 | 0.7
(37) NC(=O)C1CCN(C(=O)c2ccc3nc(N4CCCCC4)sc3c2)CC1
→ -1.1 | -7.9 | -11.9 | -4.7 | . | i | -8.6 | 1.0
(38) Cn1cc(-c2nnnn2-c2ccc(Cl)cc2)c(C(F)(F)F)n1
→ -1.1 | 38.3 | 1.5 | 0.6 | -7.6 | i | -13.2 | 4.3
(39) COc1cccc(OC)c1C(=O)O/N=C(\N)c1ccncc1
→ 0.2 | -11.9 | 3.6 | 2.3 | . | i | 1.5 | 2.8
(40) CCN(CC)CCCNc1nc(-n2nc(C)cc2C)nc2sc3c(c12)CC(C)(C)OC3
→ 3.1 | 2.7 | -6.9 | -11.1 | . | i | 9.8 | -2.0
(41) C=CCn1c(=NC(=O)c2cc(Cl)sc2Cl)sc2cc(S(N)(=O)=O)ccc21
→ -0.9 | -10.3 | -5.6 | -9.0 | -35.4 | i | 24.0 | -7.0
(42) COc1cc(OC)cc(C(=O)N[C@H](C(=O)Nc2c(C)n(C)n(-c3ccccc3)c2=O)C(C)C)c1
→ -3.2 | . | . | . | -4.5 | . | -16.7 | -1.2
(43) CCOc1ccc(C(=O)OCc2nnc(-c3cccs3)o2)cc1OC
→ -1.1 | -3.5 | 4.8 | -4.7 | 11.1 | . | -11.5 | 3.6
(44) CCN(CC)S(=O)(=O)c1ccc(N2CCOCC2)c(NC(=O)CN2C(=O)NC(C)(c3ccccc3)C2=O)c1 (stereo not given)
→ 1.1 | -3.6 | . | . | 15.0 | i | 14.3 | -3.5
(45) O=C(COC(=O)c1ccc(Br)cc1)Nc1cccnc1Cl
→ 1.0 | 7.8 | . | . | -19.0 | . | . | 1.4
(46) Cc1cc(NC(=O)Nc2cccs2)no1
→ -0.2 | . | 0.6 | -0.6 | -9.8 | i | -18.0 | 0.4
(47) CCOC(=O)/C(C#N)=C\c1ccc(OCC(=O)Nc2ccc(C)cc2C)c(OC)c1
→ -0.8 | -51.7 | -3.2 | -14.7 | -16.3 | i | -5.0 | -1.9
(48) O=C1C(=O)N(c2nccs2)C(c2ccccc2F)/C1=C(\O)c1ccc2c(c1)OCCO2 (stereo not given)
→ -14.1 | 59.2* | 1.8 | -4.1 | -2.7 | i | 23.9 | -39.2
(49) NS(=O)(=O)c1ccc(-c2ccc(C=C3C(=O)c4ccccc4C3=O)o2)cc1
→ -0.4 | 0.0 | 4.4 | -4.7 | -12.5 | i | -6.5 | 1.5
(50) COc1ccc(NC(=O)CC2C(=O)N(C)C(=S)N2Cc2ccc3c(c2)OCO3)cc1 (stereo not given)
→ 0.6 | -21.2 | 4.4 | 1.3 | . | i | . | 4.1
(51) O=C(NCc1ccc2c(c1)OCO2)c1nnc(Cc2ccc(F)cc2)o1
→ -0.1 | -1.2 | 7.3 | 1.6 | 8.2 | i | -0.1 | 1.7
(52) CCn1c(-c2ccc(-c3ccccc3)cc2)c[nH]c1=S
→ -7.6 | . | 1.9 | -1.0 | -17.2 | i | 48.0 | -0.7
(53) CC(C)N(C(=O)c1ccc(-c2ccccc2F)cc1)C(C)C
→ -3.8 | 7.8 | -6.4 | -8.0 | -4.1 | i | -3.5 | -1.3
(54) COC(=O)Cc1c(C)nc2nc[nH]n2c1=O
→ 6.9 | -50.7 | -9.8 | 4.9 | -15.1 | . | -13.1 | 1.6
(55) Cc1c(NC(=O)C(C)OC(=O)C(NC(=O)c2ccco2)C(C)C)c(=O)n(-c2ccccc2)n1C (stereo not given)
→ -1.0 | -22.5 | -8.1 | 8.9 | -6.8 | i | 5.0 | -3.1
(56) CCOc1ccc(N2CC(C(=O)OC)CC2=O)cc1 (stereo not given)
→ 2.6 | . | -3.0 | -1.0 | 0.7 | i | 2.5 | 0.0
(57) CCN(CC)C(=O)CSc1nc2ncc(Br)cc2[nH]1
→ -4.3 | . | 4.8 | -0.4 | -12.5 | i | -12.2 | -0.3
(58) COc1ccc(CNC(=O)COC(=O)c2cc(-c3ccc(Cl)s3)nc3ccccc23)cc1
→ -4.8 | . | -3.6 | -3.5 | -18.4 | i | 7.6 | -0.8
(59) CN1CCNC(=O)C1CC(=O)NCCc1ccccc1F (stereo not given)
→ 1.7 | 9.4 | 7.3 | -4.5 | -0.2 | i | 1.3 | 2.1
(60) COc1ccc(C(NC(C)=O)c2cc(Cl)c3cccnc3c2O)cc1 (stereo not given)
→ -0.9 | 7.1 | 13.2 | 5.0 | -3.4 | i | 107.2* | 2.9
(61) Cc1cc(S(=O)(=O)N2CCC3(CC2)OCCN3S(=O)(=O)c2cccs2)ccc1F
→ -7.8 | 10.1 | . | . | -22.1 | i | -2.3 | 2.6
(62) CC(C)[C@H](NC(=O)c1ccccc1Br)C(=O)OCc1nc2ccsc2c(=O)[nH]1
→ 2.8 | -1.2 | . | . | -5.7 | i | 17.1 | 1.7

Screening data: PubChem, several laboratories
